# Bioassay records deposited in PubChem BioAssay by National Center for Advancing Translational Sciences (NCATS).
# StopGo RLuc: Primary qHTS Assay for Foot and Mouth Disease Virus Antivirals against NCGC Sytravon and CBC Compound Libraries: Renilla Luciferase Signal. 120,000 compounds, 0.32% hits. HEK cells with a luciferase reporter of 2A StopGo recoding. Potency, µM (doses to about 57.5 µM), inactives show at the top dose signal change, negative = less light; active means well fitted falling curve with a large enough effect; inconclusive means small, poorly fitted or top-dose-only effect; inactive means no such curve, though single readings can be large or run the other way; further: nearly all actives have a fitted effect of over 55% in size; overnight with compound
# StopGo FLuc: Primary qHTS Assay for Foot and Mouth Disease Virus Antivirals against NCGC Sytravon and CBC Compound Libraries: Firefly Luciferase Signal; HEK cells with a luciferase reporter of 2A StopGo recoding; Potency, µM (series often up to 57.5 µM), without a hit: at the highest dose signal change, negative = less light; 120,000 compounds, 0.23% hits; AID 1745856, 2022; active = well fitted falling curve with a large enough effect; inconclusive = small, poorly fitted or top-dose-only effect; inactive = no such curve, though single readings can be large or run the other way; further: nearly all actives have a fitted effect of over 60% in size; overnight with compound
# Active calls of the source: *; u = inconclusive; & = joins results of further samples; [ ] = dose if it differs, or a comment. On the % scale 0 is the no-effect control and ±100 the full control effect; potency means the concentration at half of the fitted maximal effect. Only part of the results is shown. The share of hits here may be higher or lower than overall.
structure | StopGo RLuc | StopGo FLuc
O=C(Cn1cnc2c(Cl)cc(Cl)cc2c1=O)N(C1CCCC1)C1CCS(=O)(=O)C1 (stereo not given) | -6% | -2%
O=C(NC1CCCC(C(F)(F)F)C1)c1ccsc1 (stereo not given) | -3% | 23%
CC1=C(C)CC(C(=O)N2CCCC2)C(C(=O)O)C1 (stereo not given) | -2% | u
COc1ccc(CCNC(=O)C(=O)NCC(c2ccc3c(c2)OCO3)N2CCOCC2)cc1OC (stereo not given) | 1% | -7%
COc1ccccc1NC(=O)C1=CCN(Cc2ccccc2F)CC1 | -2% | 5%
CCCCSCCCNC(=O)CN1C(=O)COc2ccc(S(=O)(=O)N3CCC(C)CC3)cc21 | 11% | 19%
O=C(c1ccc(S(=O)(=O)NCc2cccs2)cc1)N1CCCC1 | 23% | -6%
O=C(O)CCCCCCCCC(O)CN1CCCCC1 (stereo not given) | 3% | -2%
Cc1oc(-c2ccccc2)nc1CC(=O)NCC1CCCO1 (stereo not given) | -12% | 3%
CCC(=O)N1CCc2cc(S(=O)(=O)NCCC(=O)Nc3ccc(CC)cc3)ccc21 | 20% | 4%
Cc1ccc(-c2cc(C(=O)OC(C)C(=O)NC3CCCC3)c3ccccc3n2)o1 (stereo not given) | -1% | 24%
O=C1CN(C(=O)c2ccc(S(=O)(=O)N3CCCC3)cc2)C(c2ccc(F)cc2)c2cc(F)ccc2N1 (stereo not given) | -8% | -16%
CC(=O)c1cccc(NC(=O)c2noc3c2CC(C)CC3)c1 (stereo not given) | -4% | 30%
Cc1ccccc1Nc1nc(NCc2ccco2)c2ccccc2n1 | u | 2%
CCC(C)NC(=O)CSc1nc2n[nH]c(C)c2c(=N)n1-c1ccc(C)c(Cl)c1 (stereo not given) | 9% | -5%
Cc1ccc(Cl)cc1N1CCN(C(=O)C2CCN(S(=O)(=O)c3cccc4nonc34)CC2)CC1 | -10% | -6%
O=C(CCn1ccc2ccccc21)N1CCN(S(=O)(=O)c2cccc(F)c2)CC1 | -14% | -14%
CCn1cc(C(=O)NCc2ccccc2Cl)c(=O)c2cc(S(=O)(=O)N3CCCCC3)ccc21 | -13% | -13%
COc1cccc(-c2nn(-c3ccc(F)cc3)cc2C(=O)NCC(C(C)C)N2CCOCC2)c1 (stereo not given) | 9% | 32%[activator]
O=c1[nH]c(=O)n([C@H]2C[C@H](O)[C@@H](CO)O2)cc1F | -8% | -21%
Cc1oc2cc(OCCN3CCC(C)CC3)ccc2c(=O)c1-c1ccccc1 | -9% | -6%
COc1ccc(OCc2ccc(C(=O)NCc3ccccc3)cc2)cc1 | 33%[activator] | 0%
O=C(CC1C(=O)NCCN1C(=O)CN1CCN(Cc2ccccc2)CC1)Nc1cccc(Cl)c1 (stereo not given) | -1% | 3%
CC1=C(C(=O)Nc2ccccc2)C(c2cccc(Cl)c2)n2ncc(C(=O)Nc3cccc(C)c3)c2N1 (stereo not given) | -16% | -13%
O=C(COc1ccc2c(=O)c(-c3ccc(Cl)cc3)coc2c1)Nc1ccc2c(c1)OCO2 | 69%[activator] | 265%[activator]
NC(=S)NCc1ccco1 | 12% | 4%
Cc1cc(=O)oc2c(C)c(OCc3nn[nH]n3)ccc12 | -16% | -4%
Cc1oc(-c2nc(C#N)c(N3CCCCCC3)o2)cc1S(=O)(=O)N1CCOCC1 | -2% | 1%
O=C(NCCc1csc(-c2ccc(C(F)(F)F)cc2)n1)C(=O)Nc1cc(F)ccc1F | -5% | -18%
COc1cccc(CNC(=O)C2CCN(c3nn4c(=O)cc(C)nc4s3)CC2)c1 | -16% | -5%
Cc1ccc(C)c(NC(=O)Cn2cc(C(=O)c3cccs3)c3ccccc32)c1 | 9% | -4%
O=C(Cn1nc(C(=O)O)c2ccccc2c1=O)Nc1cc(F)ccc1F | 9% | 17%
CCC(=O)Nc1cccc(NC(=O)c2cnn(-c3ccccc3F)c2C)c1C | 3% | 54%[activator]
CC(C)Cc1ccc(S(=O)(=O)NCc2nc3cccnc3n2Cc2ccccc2)cc1 | 119%[activator] | -3%
CCOC(=O)C1=C(CN2CCN(c3ccc(OC)cc3)CC2)NC(=O)NC1c1ccc(OC)cc1 (stereo not given) | u | u
Cc1ccc(NS(=O)(=O)c2c(C)nc3sccn3c2=O)cc1Cl | 279%[activator] | 9%
CCOc1cc(-c2nnc(SCC(=O)NCCCOC)nc2-c2ccc(OC)c(OCC)c2)ccc1OC | 3% | 1%
CC(CN1CCCCC1)OC(=O)c1ccc(C(C)(C)C)cc1 (stereo not given) | 6% | 27%
COc1cccc(CNC(=O)CCCn2nc(C)c3c(C)n(-c4ccc(C)cc4)nc3c2=O)c1OC | 5% | 14%
COc1cc(/C=C2\NC(=O)NC2=O)cc(Br)c1OCC(=O)O | 9% | 6%

# Grouped by structure: the compounds so far with a COOH group (4)
structure | StopGo RLuc | StopGo FLuc
CC1=C(C)CC(C(=O)N2CCCC2)C(C(=O)O)C1 (stereo not given) | -2% | u
O=C(O)CCCCCCCCC(O)CN1CCCCC1 (stereo not given) | 3% | -2%
O=C(Cn1nc(C(=O)O)c2ccccc2c1=O)Nc1cc(F)ccc1F | 9% | 17%
COc1cc(/C=C2\NC(=O)NC2=O)cc(Br)c1OCC(=O)O | 9% | 6%

# Carrying on:
structure | StopGo RLuc | StopGo FLuc
COc1cc(C#N)ccc1OC(=O)CCNC(=O)c1ccc(C(C)(C)C)cc1 | -5% | 0%
CCC(=O)C1=C(c2ccc(OC)cc2)N(C(=O)CC)n2cnnc2S1 | u | -23%
O=C(Nc1ccc(F)c(Cl)c1)c1cc(S(=O)(=O)N2CCc3ccccc3C2)ccc1F | 18% | -4%
Cc1ccc(NC(=O)CCS(=O)(=O)c2ccc3c(c2)oc(=O)n3C)c(Br)c1 | -4% | -14%
CCN(CC)c1nc(-c2ccccc2Cl)c2cc(Br)ccc2n1 | 129%[activator] | 97%[activator]
CCc1ccc(-n2c(=O)c3sc4ccccc4c3n(CC(=O)N3CCCC3)c2=O)cc1 | 15% | -1%
CCOC(=O)c1ccc(NC(=O)CSc2nc3c(c(=O)[nH]2)CN(Cc2ccccc2)CC3)cc1 | 11% | -9%
N#CC1=C(N)OC2=C(C1c1ccccc1Cl)S(=O)(=O)N(Cc1ccc(F)cc1)c1ccccc12 (stereo not given) | 20% | 15%
Cc1nn(-c2ccccc2)c2c1C(c1ccsc1)SCC(=O)N2 (stereo not given) | u | u
COc1ccc(C)cc1-n1nnc(-c2nc(-c3ccc(C)cc3)no2)c1N | -3% | 7%
O=c1oc2ccc(Cl)cc2cc1S(=O)(=O)N1CCCCC1 | -22% | -12%
COc1cccc2c1OC1OC2Oc2c(OC)cccc21 | 1% | 3%
c1ccc(NCc2cccs2)cc1 | 3% | -4%
COC(=O)c1cc(OC(=O)c2ccncc2)cc(C(=O)OC)c1 | 3% | 4%
COc1ccc(-c2noc(C(C)Oc3cccc(Cl)c3)n2)cc1 (stereo not given) | 7% | 8%
CC(C)Oc1ccc(Br)cc1/C=N/O | 9% | 7%

# The list goes on:
# Order of values: StopGo RLuc | StopGo FLuc
> CCOC(=O)CC1(N)CCCCC1
  -5% | -3%
> CCCCCCOc1ccc(C2C(=O)N(C3CCCCC3)CC(=O)N2C2CCCCC2)cc1 (stereo not given)
  -8% | 4%
> O=C(c1ccc2c(c1)N(Cc1ccc(F)cc1)C(=O)c1ccccc1S2)N1CCC2(CC1)OCCO2
  53%[activator] | -20%
> COc1cc2[nH]c(=O)n(CCCC(=O)NCc3ccc(Cl)cc3)c(=O)c2cc1OC
  -11% | -8%
> CCCCn1c(=O)[nH]c(=O)c2c1nc(CCC(=O)NC1CCN(CC)CC1)n2CC(C)C
  -11% | -20%
> O=S1(=O)C=C(N2CCC3(CC2)OCCO3)c2ccccc21
  4% | 4%
> N#CCSc1nnc(-c2ccccc2F)n1-c1ccccc1
  2% | -7%
> CCOC(=O)Cc1ccc(NC(=O)Nc2nnc(N(CC(C)C)CC(C)C)s2)cc1
  2% | 12%
> CC(C)NC(=O)CC1(C(=O)NCc2ccccc2)CCCC1
  8% | -6%
> Cc1c(Cl)cccc1Nc1nn2c(=O)c3ccc(C(=O)NCCc4ccccc4)cc3nc2s1
  -5% | -5%
> CC(=O)Nc1ccc(OC(C)C)cc1
  -4% | 0%
> CCOc1ccccc1NC(=O)CSc1c2c(nc3ccc(Cl)cc13)CCCC2
  -5% | -6%
> O=C(Cn1cc(C(=O)C(F)(F)F)c2ccccc21)N1CCCCCC1
  8% | 118%[activator]
> COC(=O)c1[nH]c(C)c(/C(O)=C2\C(=O)C(=O)N(CCCn3ccnc3)C2c2cccc(OC)c2)c1C (stereo not given)
  -2% | -1%
> O=S(=O)(NC1=NCN(Cc2cccnc2)CN1)c1ccccc1
  -10% | -5%
> CC(C)C(C)NC(=O)COc1ncnc2ccccc12 (stereo not given)
  -9% | 2%
> CCCc1cc(=O)oc2cc(C)cc(OCC(=O)NCCCN3CCOCC3)c12
  20% | -7%
> Fc1ccccc1CNC(=S)NCc1ccccc1
  177%[activator] | 67%[activator]
> N#Cc1ccc(CCC(=O)NCc2cccc(F)c2)cc1
  -12% | 9%
> CC(Sc1nnc2c(Cl)cc(C(F)(F)F)cn12)C(=O)c1ccc(C(C)(C)C)cc1 (stereo not given)
  15% | 14%
> CC(=O)c1cccc(NC(=O)COC(=O)CNC(=O)CC23CC4CC(CC(C4)C2)C3)c1
  -11% | -4%
> Cc1cccc(N2CCN(c3cc(C(=O)O)c4cc(NC(=O)C(C)(C)C)ccc4n3)CC2)c1
  -11% | -2%
> O=C(O)CNC(=O)c1ccc(NS(=O)(=O)c2cccc(Cl)c2)cc1
  4% | 3%
> CNC(=O)c1cc(-c2ccc(Br)cc2)nc2ccccc12
  -5% | 8%
> Cc1nn2c(=O)cc(COC(=O)c3ccccc3NC(=O)C(C)C)nc2s1
  -2%&-7% | 13%&12%
> CCOC(=O)c1cnc2c(cnn2CC)c1NN=C(C)C
  -13% | -11%
> CCCCOCCCNC(=O)CCC(=O)NC1CCCC(C)C1C (stereo not given)
  -1% | 5%
> C/C(=N/O)c1cc(C)ccc1O
  15% | 44%[activator]
> CCN(CC(=O)NC(C)(C)C)C(=O)c1cc(C(C)C)nc2ccccc12
  4% | 7%
> O=C(Cc1noc(C(=O)NCc2ccccc2)n1)Nc1cccc2ncccc12
  -11% | 3%

# Entries of single compounds as entered above. Order of values: StopGo RLuc | StopGo FLuc
# Entry for CC(C)C(C)NC(=O)COc1ncnc2ccccc12 (stereo not given) : -9% | 2%
# Entry for CCOC(=O)c1cnc2c(cnn2CC)c1NN=C(C)C : -13% | -11%

# Next entries.
# Order of values: StopGo RLuc | StopGo FLuc
> CCOC(=O)c1c(C)oc2nc(C)nc(Nc3ccc(C)c(Cl)c3)c12
  -4% | 0%
> COc1ccc(CCNC(=O)c2cc(=O)c3c(C)cc(C)cc3o2)cc1OC
  -7%&-5% | -1%&-12%
> CN1CCN(C2=Nc3ccccc3Oc3ccc(Cl)cc32)CC1
  -20% | 0%
> CCOc1ccc(NC(=O)Cn2c(NCc3ccccc3)nc3ccccc32)cc1
  -6% | 32%[activator]
> COc1ccc(C)cc1NC(=O)c1cc2ccccc2cc1OCC(=O)Nc1ccc2c(c1)OCCO2
  -7% | -10%
> Cc1cccc(-c2cccc3c4c([nH]c23)[C@@H]2C[C@H](N(C)C(=O)c3ccccc3C)[C@H]([C@H](C)O)C(=O)N2CC4)c1
  10% | 8%
> CCOc1ccccc1-c1nc(Cn2c(=O)cc(C)c3c(C)nn(-c4ccccc4)c32)c(C)o1
  -16% | -18%
> COc1ccc2c(C)c(CC(=O)NCc3ccccc3)c(=O)oc2c1C
  -1% | 4%
> NCC1CCN(CCc2ccccc2)C1 (stereo not given)
  -17% | -19%
> Cc1ccccc1Cn1cc(CCC(=O)NC(C)c2ccccc2)c2ccccc21 (stereo not given)
  -5% | -15%
> COc1cc(NC(=O)Cn2c(Nc3ccc(F)c(C)c3)nc(C)cc2=O)cc(OC)c1OC
  -2% | 15%
> Cc1cc(C)c2c(NC(=O)c3ccccc3Cl)c(C(=O)NCc3ccc(Cl)cc3)sc2n1
  1% | -15%
> CCOc1ccc(-n2nnc(C(=O)Nc3ccccc3CC)c2N)cc1
  6% | 39%[activator]
> Cc1cc(C)c2c(n1)SCC(=O)N2CC(=O)Nc1cccc(C)c1C
  -19% | u
> FC(F)(F)c1cccc(N=c2cc(-c3ccccc3)oc3ccc(Cl)cc23)c1
  13% | 116%[activator]
> COc1ccc(CN2CCN(S(=O)(=O)c3cc(OC)ccc3OC)CC2)cc1
  75%[activator] | -10%
> COc1ccc(Cl)cc1NC(=O)C1CCN(c2ncnc3c2nc2n3CCCCC2)CC1
  -8% | -12%
> CSc1nnnn1-c1c(C)n(C)n(-c2ccccc2)c1=O
  -5% | 3%
> CC(C)c1ccc(OCC(=O)Nc2ccc(N3CCN(C(=O)c4cccs4)CC3)cc2)cc1
  -4% | 0%
> COc1cc(NC(=O)C2CCN(c3nc4ccccc4nc3C(F)(F)F)CC2)cc(OC)c1
  -3% | -13%
> Cc1ccc(NC(=O)COc2ccc(-c3nn(C)c(=O)c4ccccc34)cc2)c(C)c1
  u | 7%&-1%
> CN(Cc1ccsc1)C(=O)c1ccc(C(=O)c2ccccc2)cc1
  78%[activator] | 0%
> N#CC1=C(c2ccccc2)C(O)(c2ccccc2)NC1=O (stereo not given)
  3% | 3%
> CCCC(=O)O[C@]1(C(=O)COC(=O)CC)CC[C@H]2[C@@H]3CCC4=CC(=O)CC[C@]4(C)[C@H]3[C@@H](O)C[C@@]21C
  14%[23.8 µM] | 0%[27 µM]
